# Polio RdRp inh: poliovirus RNA polymerase inhibition. P03300. poliovirus polymerase elongation, fluorescence polarization; active compounds read low. % elongation, % (compound at 16.7 µg/mL). hit rate 0.66% among 150,000. AID 588519; in the data active = % elongation below about 90%; also: some results filed as inactive read as strong as hits
# Target sequence (P03300 1749-2209 limits assumed): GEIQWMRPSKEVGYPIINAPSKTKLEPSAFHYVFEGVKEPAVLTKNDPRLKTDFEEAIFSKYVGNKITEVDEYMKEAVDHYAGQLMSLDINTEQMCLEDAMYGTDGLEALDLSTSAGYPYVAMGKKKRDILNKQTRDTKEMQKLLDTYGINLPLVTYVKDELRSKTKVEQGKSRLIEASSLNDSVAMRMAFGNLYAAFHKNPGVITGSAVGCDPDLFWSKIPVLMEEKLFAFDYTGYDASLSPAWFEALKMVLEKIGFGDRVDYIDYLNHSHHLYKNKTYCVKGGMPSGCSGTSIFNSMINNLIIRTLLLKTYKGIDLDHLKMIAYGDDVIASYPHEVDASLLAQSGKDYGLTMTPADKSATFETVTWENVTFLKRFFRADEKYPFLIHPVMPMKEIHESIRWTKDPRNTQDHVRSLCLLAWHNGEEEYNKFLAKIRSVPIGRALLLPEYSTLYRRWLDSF
# Mtb MbtI inh: MbtI salicylate synthase inhibition; purified MbtI enzyme, fluorescence intensity read-out; AID 493033; hit rate 0.89% among 100,000; inhibition, %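 (about 17 µg/mL by stock and volumes)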;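 active = above 50% in both replicates, above 80% if mildly self-fluorescent; inactive = the rest, strongly fluorescent compounds included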;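 also: 0% = mean of negative and 100% = mean of positive controls; one replicate is shown; some compounds called inactive have numbers as strong as hits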
# Target sequence (P9WFX0 whole entry, looked up): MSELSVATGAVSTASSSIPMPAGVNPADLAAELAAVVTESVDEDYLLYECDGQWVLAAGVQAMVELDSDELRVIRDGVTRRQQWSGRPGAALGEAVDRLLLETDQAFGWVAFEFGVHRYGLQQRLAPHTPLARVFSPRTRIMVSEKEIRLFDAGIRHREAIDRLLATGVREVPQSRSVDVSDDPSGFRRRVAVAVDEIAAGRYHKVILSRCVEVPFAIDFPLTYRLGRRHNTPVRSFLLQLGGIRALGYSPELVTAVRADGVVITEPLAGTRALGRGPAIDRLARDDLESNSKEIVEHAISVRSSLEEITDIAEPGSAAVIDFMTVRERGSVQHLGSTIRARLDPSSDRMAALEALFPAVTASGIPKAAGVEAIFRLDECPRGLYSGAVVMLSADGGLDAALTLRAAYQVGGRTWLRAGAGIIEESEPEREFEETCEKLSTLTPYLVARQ
# MenB inh: blocks the Mycobacterium tuberculosis MenB enzyme; MenB enzyme assay, absorbance read-out; some hits fall short of the stated cut; inhibition, %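 (about 12 µg/mL by stock and volumes)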; hit rate 0.43% among 100,000; AID 540299;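 active = mean of two replicates above 30%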;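 also: 0% = no compound and 100% = wells with inactive enzyme; the first replicate is given; strong numbers were not always called active; inactives centre near -10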
# Polio RdRp inh intensity: second read-out of Polio RdRp inh, no call of its own (marks repeat the call); % elongation; measured here: total intensity read-out; formula for this scale not given here;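 total fluorescence in place of polarization; lower means less elongation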
# The depositor's hits bear a star; x = no result given; & = joins results of further samples.
Molecule	Polio RdRp inh	Polio RdRp inh intensity	Mtb MbtI inh	MenB inh
Cn1c(=O)c2c(nc(CN3CCN(c4cccc(Cl)c4)CC3)n2CCCO)n(C)c1=O	98	105	-6	3
O=c1c(-c2ccccc2)coc2cc(O)ccc12	103	103	-15	-1
CC(C)(C)P(=O)(c1ccncc1)N1CCCCCC1 (stereo unspecified)	105	109	-16	-17
Cc1cc(C)cc(NC(=O)N2CCC3(CC2)OCCO3)c1	104	103	-5	-2
COC(=O)c1ccc(CSc2nc(-c3ccco3)cc(C(F)(F)F)n2)o1	103	105	-52	-41
O=S(=O)(NCc1csc(-c2cccnc2)n1)c1ccc(Cl)s1	102	115	8	-5
CCN1CCN(Cc2ccc(-c3ccccc3)cc2)CC1	101	100	-10	-32
Cc1cccc(NC(=O)c2ccc(S(=O)(=O)N(C)C)cc2)n1	101	103	-1	12

# Other structures:
Molecule	Polio RdRp inh	Polio RdRp inh intensity	Mtb MbtI inh	MenB inh
CCOc1ccccc1NC(=O)[C@@H]1CCCN1S(=O)(=O)c1ccccc1C(F)(F)F	105	105	-4	-5
Cc1cccc(N=c2scc(-c3ccco3)n2/N=C/c2c[nH]c3ccccc23)c1C	100	93	-6	-28
O=C(NC(=S)Nc1ccc(N2CCCCC2)cc1)c1ccccc1	102	97	4	2
C/C(=C\C#N)Nc1cccc(C(F)(F)F)c1	102	103	1	x
COc1ccc(C2NNC(=S)S2)cc1 (stereo unspecified)	104	109	x	2
CCOC(=O)c1[nH]c(C)c(C)c1O	99	102	64	-9
O=C(O)C1C2C=CC(CC2)C1C(=O)NCCc1ccccc1 (stereo unspecified)	102	96	-153	-32
O=C1COc2ccc(-c3csc(-n4nccc4C(F)(F)F)n3)cc2N1	87*	89*	14	-23

# Other structures follow.
Molecule	Polio RdRp inh	Polio RdRp inh intensity	Mtb MbtI inh	MenB inh
CC(Sc1ncn(-c2ccccc2)n1)C(=O)Nc1nccs1 (stereo unspecified)	101	106	-5	3
Cc1ccc(-n2c(O)c(C=NCC3CCCO3)c3ccccc3c2=O)cc1C (stereo unspecified)	98	98	1	x
O=C(Cn1nnc(-c2ccc(F)cc2)n1)NC(=O)NC1CCCCC1	107	110	9	-25
COc1ccc(C(=O)NCc2ccoc2C(=O)O)cc1	105	109	x	-5
COc1ccc(OC)c(N(C)S(=O)(=O)c2ccc3c(c2)N(C(C)=O)CCO3)c1	102	105	-19	0
CCOc1ccc(CCNC(=O)C2CCCN(C(=O)c3cc4sccc4n3CC)C2)cc1OCC (stereo unspecified)	102	104	0	0
CCCn1c(N)c(C(=O)CN2CC(C)OC(C)C2)c(=O)[nH]c1=O (stereo unspecified)	x	x	16	-10
O=C(NC1CC1)C1C2C=CC3(O2)C1C(=O)N(Cc1ccccc1)C3C(=O)NC1CCCC1 (stereo unspecified)	101	102	-1	24

# (continued)
Molecule	Polio RdRp inh	Polio RdRp inh intensity	Mtb MbtI inh	MenB inh
O=C(CSc1nnc2scc(-c3ccccc3)n12)c1ccc2c(c1)OCCO2	102	101	-8	-7
O=C(NCc1ccc(Cl)cc1)C1c2ccccc2Oc2ccccc21	103	99	-1	-6
CCCn1c(C)cc(C(=O)COC(=O)c2nn(CCC)c(=O)c3ccccc23)c1C	101	93	-3	-41
O=C1C=CC(=O)C(c2ccc(Br)cc2)=C1	105	104	66	-14
O=C(Nc1ccc2c(c1)OCCO2)Nc1nnc(N2CCCC2)s1	101	101	-2	-7
O=C(CSc1nc2ccccc2c(=O)[nH]1)NC1CCCC1	100	103	3	-24
NC(=O)CS(=O)(=O)c1nc2ccccc2n1Cc1ccccc1	102	105	-7	5
COc1cccc(NC(=O)COC(=O)Cc2ccc(F)cc2)c1	102	98	-3	x

# The listing continues.
Molecule	Polio RdRp inh	Polio RdRp inh intensity	Mtb MbtI inh	MenB inh
O=C(O)c1ccc2c(c1)N(Cc1ccc(Cl)cc1)CCS2	105	103	104	8
CC(C)n1cc(C(=O)c2ccccc2O)cc1-c1nnc(-c2ccccc2)o1	105	110	7	-3
CCC(=O)OCC(=O)C1(OC(=O)CC)C(C)CC2C3CCC4=CC(=O)C=CC4(C)C3(Cl)C(O)CC21C (stereo unspecified)	100	102	-12	2
O=C(Nc1c(NC2CCCCC2)c2ccccc2oc1=O)c1ccco1	102	103	5	6
O=C(c1cccs1)C1C(=O)c2ccccc2C1=O	101	93	2	x
O=C(NN1CCCCC1)c1oc2ccccc2c1COc1ccccc1	101	105	2	-19
Nc1c(S(=O)(=O)c2ccccc2)sc2nc(-c3cccs3)cc(C(F)(F)F)c12	111	120	x	-9
COc1ccc(N=C2NC(=O)C(CC(=O)Nc3ccc(OC)cc3)S2)cc1 (stereo unspecified)	101	108	-5	-25

# (next part)
Molecule	Polio RdRp inh	Polio RdRp inh intensity	Mtb MbtI inh	MenB inh
Cc1ccccc1CN1C(=O)/C(=C\c2ccc(C(=O)NCc3ccco3)cc2)Sc2ccccc21	104	106	-14	-59
O=C1c2ccccc2-c2onc3c(Cl)ccc1c23	100	136	1	-26
O=C1NC(c2ccccc2Cl)Nc2sc3c(c21)CCCC3 (stereo unspecified)	103	102	4	-14
Cc1ccc(CNC(=O)CCn2c(=O)c3cccn3c3cccnc32)cc1	101	104	-5	8
CCCN1CC2=C(NC(=S)NC2c2ccc(N(C)C)cc2)/C(=C/c2ccc(N(C)C)cc2)C1 (stereo unspecified)	109	125	-174	-114
CCOC(=O)Cc1nnc(SCc2cc(=O)n3c4c(sc3n2)CCCC4)n1Cc1ccco1	101	102	13	-10
CN(Cc1nc(-c2ccccc2)no1)C(=O)NC1CCCCC1	104	99	-16	-23
O=S(=O)(Cc1ccc(Cl)cc1)C1CCCCC1O (stereo unspecified)	108	111	-15	-5

# (further entries)
Molecule	Polio RdRp inh	Polio RdRp inh intensity	Mtb MbtI inh	MenB inh
O=C1C2C3C=CC(C3)C2C(=O)N1CN1CCCCC1 (stereo unspecified)	103	108	-5	-10
O=C(N=Nc1c(O)[nH]c2ccccc12)C(O)c1ccccc1 (stereo unspecified)	101	100	4	-11
CC1(C)CC(=O)C(C=NCC(N)=O)=C(O)C1	102	103	14	-11
O=C(CSc1nc(-c2ccccc2)cc(=O)[nH]1)Nc1ccccc1	99&102	102&104	-58&8	-15&-3
Cc1ccc(C(CC(=O)c2ccco2)SCc2ccco2)cc1 (stereo unspecified)	103	108	-8	x
O=C(c1cccc(C(F)(F)F)c1)N1CCc2c([nH]c3ccccc23)C1C(F)(F)F (stereo unspecified)	105	116	-11	-7
CCOC(=O)c1cnc2c(OC)cccc2c1N1CCC2(CC1)OCCO2	101	99	-5	-24
CCC(O)C12CC3CC(CC(C3)C1)C2 (stereo unspecified)	103	104	-11	x

# Other compounds follow:
Molecule	Polio RdRp inh	Polio RdRp inh intensity	Mtb MbtI inh	MenB inh
O=C(OCC(=O)N1CCOCC1)c1ccc(S(=O)(=O)NCc2ccco2)cc1	97	93	-11	-31
CCN1C(=O)/C(=N\N=C2\C(=O)N(CC)c3ccccc32)c2ccccc21	97	96	-6	-17
O=C1/C(=C\c2ccccc2O)SC(=Nc2ccccc2)N1Cc1ccccc1	100	109	x	-51
N#Cc1c(-c2ccc(Cl)cc2)[nH]c(SCc2ccccc2)nc1=S	105	110	5	-10
O=C(NCCO)c1cc2c(s1)CCC2	102	105	2	x
CN(C)C(=O)C(CCN1CCC(O)(c2ccc(Cl)cc2)CC1)(c1ccccc1)c1ccccc1	100&101&101&99	102&101&101&102	1&-6&-24	-9&-7&4
O=C(Nc1ccc2c(c1)OCO2)c1cccs1	106	99	x	-11
Cc1ccc(SC(C)C(=O)N2CCC(C(N)=O)CC2)cc1 (stereo unspecified)	109	113	x	-7

# Next results
Molecule	Polio RdRp inh	Polio RdRp inh intensity	Mtb MbtI inh	MenB inh
Cc1cc(C(=O)O)c(C)n1Cc1ccc(S(N)(=O)=O)cc1	100	97	-7	-10
Cc1ccnc(NC(=O)Cn2ncc3c2-c2cc(C)ccc2OC3)c1	104	98	-4	-24
O=C(OCC1COc2ccccc2O1)c1cc(F)c(F)c(F)c1F (stereo unspecified)	100	101	2	x
O=C1c2ccccc2NC(c2cccc(F)c2)N1Cc1ccccc1 (stereo unspecified)	102	106	104	-19
CC1CCCCC1NC(=O)CN(C)S(=O)(=O)c1ccc(Cl)cc1 (stereo unspecified)	103	97	9	-16
OC1CCCN(Cc2ccc(Br)cc2)C1 (stereo unspecified)	100	99	-4	-63
Cc1cc(C)c2c(-n3cccc3)c(C(=O)NCCCN3CCN(c4ccc(F)cc4)CC3)sc2n1	105	98	5	-10
CCOC(=O)/C=C1\SC(C)C(=O)N1CC(=O)N(CCC#N)c1ccccc1 (stereo unspecified)	106	107	3	-12

# Other records follow:
Molecule	Polio RdRp inh	Polio RdRp inh intensity	Mtb MbtI inh	MenB inh
COC(=O)c1ccccc1S(=O)(=O)/C(C#N)=C/Nc1nc(SC)nc(C2CC2)n1	102	112	-3	6
CC(Oc1ccccc1)c1nc2ccccc2n1C (stereo unspecified)	101	99	3	-31
COc1ccc(NC(=O)C(C)Oc2ccc3c(-c4ccccc4)cc(=O)oc3c2)cc1 (stereo unspecified)	105	99	29	-7
O=C(NC1CCCc2ccccc21)c1cnn(-c2ccccc2)c1-n1cccc1 (stereo unspecified)	100	99	-5	-3
Cc1ccc(S(=O)(=O)N2CCCCC2)cc1C(=O)Oc1cccc2cccnc12	101	95	-8	-6
O=C(O)c1cccc(CN2C(=O)c3ccccc3C2=O)c1	99	94	-4	-34
Cc1ccc(S(=O)(=O)N2CCC(CNC(=O)c3cccs3)CC2)cc1	102	102	-6	-4
O=C(CSc1ncnc2sc(-c3ccccc3)cc12)NC1CCS(=O)(=O)C1 (stereo unspecified)	106	98	5	-10

# (further entries)
Molecule	Polio RdRp inh	Polio RdRp inh intensity	Mtb MbtI inh	MenB inh
O=C(O)c1ccc(N=NSCCO)cc1	101	99	26	3
Cc1cc2nc(CSc3ccccc3NC(=O)c3ccc4c(c3)OCO4)cc(=O)n2o1	101	102	19	11
CC(C)(C)OC(=O)NCc1ccc(C(=O)O)cc1	99	103	0	-27
CC(C)Cc1c(O)nc(SCC(=O)NC(C)(C)C)[nH]c1=O	103	108	-5	-7
O=C(c1cccs1)n1cc(C(F)(F)F)ccc1=O	101	108	1	-5
O=C(O)CC1N=C(Nc2nc3ccccc3o2)NC1=O (stereo unspecified)	104	101	x	4
COC(=O)c1ccc2c(=O)n(NC(=O)C3CC3)c(=S)[nH]c2c1	99	101	23	-3
COCCNC(=O)CN1CCC(NC(=O)c2ccco2)CC1	104	105	-5	8

# (further entries)
Molecule	Polio RdRp inh	Polio RdRp inh intensity	Mtb MbtI inh	MenB inh
O=C(Cc1nc2ccccc2[nH]1)N1CCOCC1	100	105	-2	x
COc1ccc(-c2nsc(SCC(=O)N3CCCCC3)n2)cc1	98	96	57	-14
CC1Cc2ccccc2O1 (stereo unspecified)	99	97	-2	-22
O=c1[nH]c2nc3ccccc3n2c(O)c1Cc1ccccc1	99	101	2	-13
O=C(NCCCN1CCCC1=O)c1cc(-c2ccc(F)cc2)nc2ccccc12	104	100	68	x
c1ccc2c(N3CCC4(CC3)OCCO4)nnc(Cc3ccncc3)c2c1	99	97	-8	-14
O=C(CN1C(=O)c2ccccc2S1(=O)=O)NCc1ccccc1Cl	103	108	-9	x
O=C(CN1C(=O)c2ccccc2C1=O)NCc1ccccc1	101	102	-2	-30

# Additional compounds follow.
Molecule	Polio RdRp inh	Polio RdRp inh intensity	Mtb MbtI inh	MenB inh
CCn1c(SCC(=O)NC(C)c2ccccc2)nnc1-c1ccccc1OC (stereo unspecified)	104	106	6	-17
O=c1[nH]c2cc3[nH]c(=O)c(=O)c3cc2c1=O	99	98	10	-54
COc1ccc(/C=N/NC(=O)Cn2ccnc2C)cc1	104	104	24	-18
CCOc1ccc(-c2csc(Cn3c(CN4CCN(C)CC4)nc4ccccc4c3=O)n2)cc1	66*	68*	85*	-6
CCOC(=O)Cn1c(=O)oc2cc(S(=O)(=O)N3CCC(C)CC3)ccc21	100	104	-29	-6
N#Cc1ccccc1NC(=O)COC(=O)c1ccccc1C(=O)N1CCCC1	x	x	0	-16
CC(C)c1cc(C(F)(F)F)n2nc(C(=O)O)cc2n1	104	103	-4	5
O=C(NCc1cccc(C(F)(F)F)c1)c1cccs1	102	97	0	-29

# (continued)
Molecule	Polio RdRp inh	Polio RdRp inh intensity	Mtb MbtI inh	MenB inh
N/C(=N/OC(=O)Nc1ccccc1)C1COc2ccccc2O1 (stereo unspecified)	101	102	5	16
NNc1nnc2c(n1)[nH]c1ccc(F)cc12	99	101	2	-10
COc1ccc(C(=O)NCc2nnc(SCC(=O)Nc3ccc(C)cc3C)o2)cc1OC	101	103	24	4
COc1ccc(C2(C(=O)NC(C)(C)C)CCCC2)cc1	105	104	-5	-34
COc1cc2c(cc1NC(=O)CC(C)(C)C)oc1ccccc12	99	98	14	1
COc1ccc(CNC(=O)CCSCc2ccc(C)cc2)cc1	101	106	5	5
CC/S(=N\S(=O)(=O)c1ccc(C)cc1)c1ccccc1 (stereo unspecified)	101	94	-5	-12
CCc1cccc(CC)c1N(COC)C(=O)Cn1c(Cc2ccccc2)nc2ccccc21	100	99	-4	-6
CCOC(=O)c1c(C)c(C#N)c(N(C(C)=O)C(C)=O)n1-c1ccc(C)cc1	105	108	-9	6
FC(F)(F)CNC1CCN(Cc2ccccc2)CC1	105	112	-5	-2
O=C1OCCC1OC(=O)C1c2ccccc2Oc2ccccc21 (stereo unspecified)	99	101	5	-12

# Source: PubChem
